Assay outcomes as filed in PubChem.
ClpP mod: qHTS Assay for Activators of ClpP. 340,000 tested, 1.9% active. Potency, µM (highest dose often 57.5 µM), inactives show top-dose activity change, negative = active. ATP-dependent Clp protease proteolytic subunit (Bacillus subtilis (strain 168)), P80244. purified B. subtilis ClpP, FRET peptide cleavage, 20 min; active = well fitted falling curve with a large enough effect; inconclusive = small, poorly fitted or top-dose-only effect; inactive = no such curve, though single readings can be large or run the other way; also: potency is read from the fitted curve at half-maximal effect; the source files actives as falling curves though it sought activators and does not explain the sign; nearly all actives have a fitted effect of over 65% in size; many hits overshoot -100%
Target sequence (P80244 whole entry, looked up): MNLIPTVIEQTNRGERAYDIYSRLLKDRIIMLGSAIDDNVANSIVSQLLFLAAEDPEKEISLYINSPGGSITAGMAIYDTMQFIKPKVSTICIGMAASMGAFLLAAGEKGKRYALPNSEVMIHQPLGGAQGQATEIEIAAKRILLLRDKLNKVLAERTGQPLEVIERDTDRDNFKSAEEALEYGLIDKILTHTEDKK
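Buffer: 100 mM Tris/HCl pH8, 100 mM KCl, 0.05% low protease BSA, 2.5% glycerol, 0.01% Tween-20. ClpP 10 microg/mL final; 20 min RT; delta FRET normalized to ADEP and DMSO controls.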
TRPML1 inh: qHTS for Inhibitors of the Human Mucolipin Transient Receptor Potential 1 (TRPML1); activity change, negative = inhibition, % (no concentration beside the values); 390,000 tested, 0.02% active; Mucolipin-1 (Homo sapiens), Q9GZU1; TRPML1-inducible cells, Ca2+ dye fluorescence, FDSS; hits give low values; inhibition of EC80 agonist-evoked calcium signal; AID 624415, 2012; in the data active means activity change below about -50%; inconclusive means about -30% to -50%; inactive means above about -30%;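 also: stimulus is agonist 54-4 at its EC80 concentration; % is scaled to controls: 0 for no effect and ±100 for the full control effect; compound concentration not given in the record; the text of the record puts the active cut at -80%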
Target sequence (Q9GZU1 whole entry, looked up): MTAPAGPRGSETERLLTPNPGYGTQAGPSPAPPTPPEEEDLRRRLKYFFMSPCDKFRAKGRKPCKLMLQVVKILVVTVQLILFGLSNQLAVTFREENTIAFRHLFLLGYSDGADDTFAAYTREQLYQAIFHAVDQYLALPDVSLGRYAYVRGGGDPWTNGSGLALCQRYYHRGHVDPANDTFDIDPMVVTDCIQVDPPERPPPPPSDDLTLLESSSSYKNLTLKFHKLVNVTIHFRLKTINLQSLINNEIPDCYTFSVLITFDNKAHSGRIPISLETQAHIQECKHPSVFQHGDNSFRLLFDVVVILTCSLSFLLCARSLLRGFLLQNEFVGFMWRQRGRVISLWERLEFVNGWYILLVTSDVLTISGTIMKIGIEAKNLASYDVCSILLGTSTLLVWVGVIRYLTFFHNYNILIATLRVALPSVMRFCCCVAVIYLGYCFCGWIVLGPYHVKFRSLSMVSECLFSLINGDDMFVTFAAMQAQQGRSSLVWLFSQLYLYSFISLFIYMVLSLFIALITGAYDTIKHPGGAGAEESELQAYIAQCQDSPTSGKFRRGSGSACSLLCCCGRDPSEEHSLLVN
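Tet-induced TRPML1-DL cells loaded with Ca8 no-wash calcium dye were read kinetically on FDSS. Compound addition was followed by EC80 agonist 54-4 (4 uM final); inhibition was read over 110 s.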
gsp antagonist: qHTS for Antagonists of gsp, the Etiologic Mutation Responsible for Fibrous Dysplasia/McCune-Albright Syndrome: qHTS | 340,000 tested, 0.4% active | gsp-mutant cells, cAMP HTRF, 30 min; control for the full effect not named in the record | Potency, µM (top dose mostly 76.9 µM), inactives show at the top dose activity change, negative = inhibition, most hits filed as inhibitors | AID 624288, 2012; active = falling curve of any shape with a large fitted effect; inconclusive = falling curve, mostly with a smaller effect; inactive = flat or rising curve; cell line not stated here;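 also: intracellular cAMP measured with PDE inhibitor Ro 20-1724 present during compound exposure; potency is read from the fitted curve at half-maximal effect; % is scaled to controls: 0 for no effect and ±100 for the full control effect; nearly all actives have a fitted effect of over 65% in size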
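Cells in G418 medium, seeded 16-24 h, 37C; buffer exchange to DPBS + 1 mM CaCl2, 0.5 mM MgCl2, 0.05% BSA; cpds in DMSO + […] (300 uM stock), 30 min 37C; HTRF cAMP detection.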
TRPML1 agonist: qHTS for Agonists of the Human Mucolipin Transient Receptor Potential 1 (TRPML1) | activation, % (test concentration not listed) | 410,000 tested, 0.12% active | AID 624414, 2012 | TRPML1-expressing cells, Ca2+ dye fluorescence, FDSS; host cell line not named in the record; reference of the full effect not given here | Mucolipin-1 (Homo sapiens), Q9GZU1; in the data active = activation above about 50%; inconclusive = about 30% to 50%; inactive = below about 30%; also: 0% is about no effect; the text of the record puts the active cut at 80%
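Calcium fluorescence on an FDSS kinetic reader gave the read-out. Tet-induced TRPML1-DL cells were plated overnight, dye-loaded (Ca8 with quencher, 45-90 min, room temperature, dark), then read 110 s after compound addition, and again 110 s after 4uM final 54-4 (EC80).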
Menin-MLL FL inh: qHTS Assay for Inhibitors Targeting the Menin-MLL Interaction in MLL Related Leukemias: Competition With Fluorescein Labeled MLL-derived Peptide. Fluorescence polarization, fluorescein-MLL peptide displacement from menin. FP activity change, % at 61.4 µM. 290,000 tested, under 10 active. AID 1766, 2009; inconclusive = falling polarisation curve, or a change in total fluorescence; inactive = total fluorescence flat and polarisation flat or rising; no compound was filed as active; the % refers to the polarisation; negative = inhibition;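 also: % of control where 0% means no effect; inhibitors lower the polarisation; unlabelled MLL peptide was the positive control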
gsp ag: qHTS for Agonist of gsp, the Etiologic Mutation Responsible for Fibrous Dysplasia/McCune-Albright Syndrome: qHTS; gsp mutant cells, cAMP HTRF, 30 min; control for the full effect not named in the record; Potency, µM (top dose mostly 76.9 µM), inactives show top-dose activation (cAMP increase), most hits filed as activators; 340,000 tested, 0.13% active; active = well fitted activation curve with a large enough effect; inconclusive = small, poorly fitted or top-dose-only effect, or another doubt; inactive = no such curve, though single readings can be large or run the other way; cell line not stated here;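 also: phosphodiesterase inhibitor Ro 20-1724 added with compounds to block cAMP breakdown; potency is read from the fitted curve at half-maximal effect; nearly all actives have a fitted effect of over 60% in size; about a fifth of the inactives were tested at one dose only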
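Cells stably selected in G418 were plated at 2000/well, grown 16-24 hr, then given compounds in DMSO with the PDE inhibitor […] (300 uM solution added) for 30 min at 37C; cAMP was read by HTRF.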
* hit, by the source's call; ? = inconclusive; nt = no result given; [ ] = dose if it differs, or a comment.

SMILES	ClpP mod	TRPML1 inh	gsp antagonist	TRPML1 agonist	Menin-MLL FL inh	gsp ag
O=C1c2ccccc2C(=O)N1CCCOc1ccccc1	-0.4%	1	2%	0.3	2.3	-10%
COc1ccc2nc(N=Nc3ccc(O)c4ccccc34)sc2c1	-0.5%	-17	0%	0.7	0.6	-8%
O=C(Nc1ccccc1C(=O)N/N=C/c1ccco1)c1ccc(Cl)cc1	-1.8%	-15	18%	0.9	8.9	-6%
CC(NC(=O)C1CCC1)c1ccccc1 (stereo unspecified)	-1.8%	-20	-2%	-0.2	-0.1	-47%[inhibitor]
CC(C)CN(CCCNC(=O)Cn1ncc2c3ccccc3n(C)c2c1=O)CC(C)C	-16%	4	nt	2.7	nt	nt
O=C(c1ccc2c(c1)N(Cc1ccccc1F)C(=O)c1ccccc1S2)N1CCOCC1	-0.6%	8	1%	-0.9	0.1	4%
COc1cc(OC)cc(-c2c(-c3cccs3)c3cc(-c4ccc5[nH]ccc5c4)ccc3n2C)c1	2.6%	12	3%	0.0	nt	?
Cc1ccc2c(c1)C(=O)C(=O)N2Cc1ccc(C(F)(F)F)cc1	0.0%	6	13%	0.3	nt	nt
CCOC(=O)c1ccc(NC(=O)C(=O)NCc2ccncc2)cc1	-4.4%	6	-6%	-0.2	1.6	-6%
O=C1C(=O)N(C2CCCC2)C(=O)N1Cc1c(F)cccc1Cl	nt	-3	-6%	-0.9	-2.4	33%[15.4 µM]
COC(=O)c1cnc(NC(=O)C2(C)CCN2C(=O)C(C)C)s1 (stereo unspecified)	-0.6%	-13	nt	-0.5	nt	nt
COc1ccc(N2C(=O)CC(N3CCN(c4ccccc4F)CC3)C2=O)cc1 (stereo unspecified)	0.2%	5	-21%	0.3	1.6	-28%
COc1ccc2c3n(nc2c1)CCN=C3c1ccc(C)cc1	-0.7%	17	-14%	-0.6	nt	-2%
COc1ccccc1N1CC(C)(C)C(=O)N(C(=O)c2c(F)cccc2Cl)C1=S	nt	-9	-13%	-0.2	-0.9	21%
CCOC(=O)C1CCN(C(=O)COC(=O)c2cccc(F)c2)CC1	0.0%	-3	-1%	0.2	0.9	-10%
C[C@H](OC(=O)N1CCN(C(c2ccccc2)c2ccccc2)CC1)[C@@H]1O[C@@]2(C)CCC[C@H]1O2	-3.2%	10	-17%	1.1	nt	nt
ON=C1c2ccccc2-c2cc(Br)ccc21	1.3%	-11	8%	2.3	nt	6%
Cc1cc2oc(=O)cc(C)c2cc1NC(=O)CCl	nt	1	-4%	0.1	4.1	-1%
CCn1c(C)c(C(C)=O)c(N2CCCCC2)nc1=S	-1.4%	-7	4%	0.9	0.8	0%
Cc1ncc(CSc2nc3ccccc3[nH]2)c(N)n1	-1.4%	-8	2%	-0.2	-1.7	0%
CC(CNC(=O)c1ccc(Cn2c(SCc3ccccc3)nc3cccnc32)cc1)c1ccccc1 (stereo unspecified)	4.7%	-1	nt	0.5	nt	nt
Cc1ccc(NC(=O)CC2SC(=O)N(c3ccccc3)C2=O)cc1 (stereo unspecified)	28µM*	-8	-14%	0.4	-0.5	16%[15.4 µM]
CC(=O)C1=C(C)Nc2ncnn2C1c1ccccc1 (stereo unspecified)	0.5%	13	10%	0.9	-1.0	?
Nc1ccc(Oc2cc(N)cc(Oc3ccccc3)c2)cc1	nt	2	-4%	-0.4	-0.3	-27%[15.4 µM]
OCc1nnn(-c2cccc(C(F)(F)F)c2)c1CO	-7.3%	3	3%	-0.7	-0.8	11%
(further entries)
SMILES	ClpP mod	TRPML1 inh	gsp antagonist	TRPML1 agonist	Menin-MLL FL inh	gsp ag
CCN(CC(=O)Nc1c(F)cccc1F)C(=O)C1CCN(S(=O)(=O)c2ccc(F)cc2)CC1	-4.1%	4	10%	2.0	nt	11%[15.4 µM]
C/C(=N\NC(=O)Cc1ccc(Cl)cc1)c1cccnc1	0.1%	-11	11%	0.0	0.2	21%
Cc1ccc(C(=O)CSC2=C(C#N)C(c3ccco3)C3=C(CC(C)(C)CC3=O)N2)cc1 (stereo unspecified)	-14%	-9	-17%	0.1	-11	16%
CCn1c(C)c(Br)c(=O)c(C(=O)OC)c1-c1ccc(Cl)cc1	1.1%	-5	0%	1.9	32[activator]	-6%
Cc1cc(C(=O)NCc2cccnc2)no1	-0.2%	-6	16%	0.2	2.0	0%
Cc1ccc(S(=O)(=O)c2cn(C)c3cc(N4CCOCC4)c(F)cc3c2=O)c(C)c1	?	7	nt	-0.7	nt	nt
O=C1CC(N2CCN(S(=O)(=O)c3ccccc3F)CC2)C(=O)N1c1ccccc1F (stereo unspecified)	0.3%	9	11%	2.0	nt	29%
CCC(C)N1CNc2c(c(=O)[nH]c(=S)n2-c2cccc(C)c2)C1 (stereo unspecified)	nt	-3	9%	2.1	-1.2	-14%[15.4 µM]
COc1ccc(S(=O)(=O)NCc2ccc(C(=O)N3CCN(Cc4ccccc4)CC3)cc2)cc1	-1.4%	-9	-9%	-0.5	nt	6%
Cc1ccc(S(=O)(=O)N2CCN(Cc3ccccc3)CC2)c(C)c1NS(C)(=O)=O	-4.3%	13	nt	-0.5	nt	nt
COc1ccc(CCNC(=O)CN2C(=O)COc3ccc(S(=O)(=O)N4CCOCC4)cc32)cc1OC	-2.1%	13	-15%	0.4	nt	?
CC(C)c1ccc(C2=CC(c3cccc(Cl)c3)n3c(nc4ccccc43)N2)cc1 (stereo unspecified)	1.3%	-3	nt	2.6	nt	nt
CC(C)CN(CC(C)C)S(=O)(=O)N1CCC(C(=O)NCc2ccc3c(c2)OCO3)CC1	-0.6%	?	-4%	0.6	0.8	21%
COc1ccc(-c2n[nH]c(=S)n2/N=C/C=C/c2ccccc2OC)cc1	-2.6%	-16	-27%	4.4	-0.5	-7%
COC(=O)Cn1c(=O)sc2ccccc21	4.7%	7	4%	0.7	1.5	-16%
C[C@H](NC(=O)OCc1ccccc1)C(=O)NNC(=O)[C@H](C)NC(=O)OCc1ccccc1	0.8%	-20	11%	-0.4	5.1	nt
O=C(COc1ccc(Br)cc1)NCC1COc2ccccc2O1 (stereo unspecified)	-0.4%	15	5%	-1.6	nt	-17%
O=C(COC(=O)c1ccccc1-n1cnnn1)c1ccc(F)c(F)c1	-5.7%	9	4%	0.6	nt	-40%[inhibitor]
C=CCN(CC(=O)Nc1cccnc1)S(=O)(=O)c1ccc(Cl)cc1	nt	-7	5%	2.7	nt	10%
COC(=O)c1sc(=S)n(-c2ccc(Cl)cc2)c1C	0.5%	5	2%	-0.3	-1.6	2%
CC(C)CNC(=O)C(=O)NCC1OCCN1S(=O)(=O)c1cccs1 (stereo unspecified)	-0.8%	1	9%	0.0	nt	-3%[15.4 µM]
COc1ccc(C)cc1N1CC(C(=O)Nc2ccccc2N2CCCCC2)CC1=O (stereo unspecified)	0.5%	19	-17%	0.6	nt	6%
CCCN(CCC)S(=O)(=O)c1ccc(C(=O)Nc2nnc(-c3cc(OC)cc(OC)c3)o2)cc1	0.2%	-9	2%	-0.2	-0.1	-22%
O=C(CCN1CCN(c2ccccc2)CC1)NNC(=O)Cc1ccccc1Cl	0.0%	1	6%	-1.3	nt	14%
COc1ccc(/C=N/Nc2nnc(C)n2N)cc1OC(C)=O	0.3%	-2	-24%	-1.2	0.1	3%[15.4 µM]

Among those listed so far, these contain an aryl thioether with sulfur outside any ring:
SMILES	ClpP mod	TRPML1 inh	gsp antagonist	TRPML1 agonist	Menin-MLL FL inh	gsp ag
Cc1ncc(CSc2nc3ccccc3[nH]2)c(N)n1	-1.4%	-8	2%	-0.2	-1.7	0%
CC(CNC(=O)c1ccc(Cn2c(SCc3ccccc3)nc3cccnc32)cc1)c1ccccc1 (stereo unspecified)	4.7%	-1	nt	0.5	nt	nt

Other compounds.
SMILES	ClpP mod	TRPML1 inh	gsp antagonist	TRPML1 agonist	Menin-MLL FL inh	gsp ag
CCN(CC)S(=O)(=O)c1ccc(N=Nc2cc(C)cc(Br)c2O)cc1	2.5%	0	-15%	0.3	nt	1%[15.4 µM]
COc1ccc([N+](=O)[O-])cc1N(CC(O)Cn1nnc2ccccc21)S(=O)(=O)c1ccc(C)cc1 (stereo unspecified)	-3.5%	-9	-3%	0.4	1.7	0%
Cc1cc(C)n(CCC(=O)N/N=C/c2c(O)ccc3ccccc23)n1	-6.7%	-12	-3%	0.1	7.6	-9%
O=C(CNC(=O)C1COc2ccccc2O1)N/N=C\c1ccc(Cl)cc1 (stereo unspecified)	1.5%	-21	-5%	-0.4	5.5	-5%
Cc1ccc(C(=O)N2CCC3(CC2)Oc2ccc(F)cc2C(=O)C32CC(c3ccccc3)=NO2)s1 (stereo unspecified)	1.2%	2	-27%	-0.3	3.4	1%
O=S(=O)(Nc1ccc2nc(N3CCOCC3)sc2c1)c1ccccc1	-3.0%	-12	-2%	0.0	nt	-11%
O=C(CC(NC(=O)C(F)(F)F)c1ccccc1)Nc1nnc(CCc2ccccc2)s1 (stereo unspecified)	nt	-4	7%	0.5	-0.6	4%[15.4 µM]
O=C(c1ccc2c(c1)N(Cc1cccc(Cl)c1)C(=O)c1ccccc1S2(=O)=O)N1CCN(c2cccc(C(F)(F)F)c2)CC1	0.7%	-17	nt	0.3	nt	nt
CCc1ccc(-c2cc(C(=O)N/N=C/c3ccccn3)[nH]n2)cc1	nt	-12	-8%	-1.0	-1.7	16%[15.4 µM]
COc1ccc(N2CCN(C(=O)c3nc(-c4ccc(Cl)cc4)n4c3CCCCC4)CC2)cc1	-0.8%	-20	nt	-0.2	nt	nt
COc1ccccc1N1CCN(S(=O)(=O)CCNC(=O)C2CCCCC2)CC1	?	-25	-1%	2.6	nt	2%
Cc1c(OCC(=O)NC2CC(C)(C)NC(C)(C)C2)ccc2c3c(c(=O)oc12)CCC3	4.2%	21	10%	-0.3	nt	11%
Cc1cc(C)nc(SCc2c(F)cccc2Cl)n1	-1.4%	-10	-11%	1.4	2.5	10%[15.4 µM]
O=C(CNCc1ccccc1Cl)Nc1cc(S(=O)(=O)N2CCOCC2)ccc1Cl	-2.5%	55	-15%	5.2	nt	2%
O=C(O)CNC(=O)c1ccc(OC(F)F)cc1	0.7%	15	6%	0.4	-0.4	-4%
